Bm FixLJ act = activators of Burkholderia fixLJ two-component system; 0.3% of 29,000 active; AID 1918990; B. multivorans fixK-promoter GFP reporter, 18 h; stronger effect = higher value; z-score (no concentration beside the values);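 active = replicate mean overnight rise in green fluorescent reporter signal, 3 or more SD over negative controls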;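 also: score is relative to vehicle wells of the plate; 300 nL library stock went into each well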
Starred values were filed as active, the others as inactive.

SMILES | Bm FixLJ act
CCc1cc(=O)oc2c(C)c(OCC(=O)Nc3ccc(S(=O)(=O)N(CC)CC)cc3)ccc12 | -2
CCOC(=O)c1cc2c(=O)n3ccccc3nc2n(CCOC)c1=NC(=O)c1cc2ccccc2o1 | -0.86
O=C(C1CCN(S(=O)(=O)c2ccc(Br)s2)CC1)N1CCN(c2cccc(Cl)c2)CC1 | 0.75
CCCN(Cc1nccn1C)C(=O)C(C)n1cc(Cl)cn1 (stereo not drawn) | -0.54
CCOC(=O)N1CCc2c(sc3c2c(=O)n(Cc2ccccc2)c(=O)n3CC(=O)Nc2cccc(CC)c2)C1 | 0.22
CCN(C(=O)CCc1nc(-c2ccc(C)cc2)no1)c1cccc(C(F)(F)F)c1 | 1.2
Cc1ccc(NC(=O)Cn2c(=O)oc3cc(S(=O)(=O)N4CCCC4)ccc32)cc1F | 0.21
O=C(COc1ccccc1Cl)N(Cc1ccco1)Cc1ccco1 | -0.45
CCOc1ccc(CN2C(=O)c3ccccc3Sc3ccc(C(=O)NC4CCC(C)CC4)cc32)cc1 (stereo not drawn) | -0.96
CCOc1ccc(CCNC(=O)CS(=O)(=O)Cc2nc(-c3cccc(Cl)c3)oc2C)cc1 | -0.3
CCCCOc1ccccc1C1CC(=O)Nc2cc(OC)c(OC)cc21 (stereo not drawn) | 0.21
COc1ccc(/C=C/c2nc(C#N)c(NCc3ccc(F)cc3)o2)cc1OC | 1.2
CC(=O)c1c(C)n(-c2cccc(Cl)c2)c2ccc(OC(=O)c3ccccc3)cc12 | -0.21
CCC1CCCCN1Cc1c(O)ccc2c(=O)c(Oc3ccccc3Cl)c(C(F)(F)F)oc12 (stereo not drawn) | -1.6
CC(=O)N1CCc2cc(Br)cc(S(=O)(=O)N3CCC(C(=O)Nc4cccc(C)c4C)CC3)c21 | -1.1
N#Cc1c(C(F)(F)F)cc(-c2cccs2)nc1SCC(=O)Nc1cccc(Cl)c1 | -2.2
Cc1cccc(NC(=O)C2CCCN(S(=O)(=O)c3cccc4nonc34)C2)c1C (stereo not drawn) | -0.27
COCCn1c(SCC(=O)Nc2cccc(C)c2C)nc2c(oc3ccccc32)c1=O | 1.6
CC(C)CCSc1nnc2n(-c3ccccc3)c(=O)c3c4c(sc3n12)CC(C)CC4 (stereo not drawn) | 0.17
CCC(=O)N1CCc2cc(Br)cc(S(=O)(=O)CCC(=O)NCCc3ccccc3Cl)c21 | 0.72
Cc1cc(=O)n2nc(N3CCC(C(=O)NCCCOC(C)C)CC3)sc2n1 | -0.85
CCOC(=O)c1ccc(N2C(=O)c3n[nH]c(-c4cccs4)c3C2c2ccc(CC)cc2)cc1 (stereo not drawn) | 0.83
COc1cccc(/C=C/c2nc(C#N)c(N3CCC(C(N)=O)CC3)o2)c1 | -2.5
Cc1cccc(CCNC(=O)CCc2c(C)nc3c(-c4ccc(F)cc4)c(C)nn3c2C)c1 | 0.35
CN(Cc1cn[nH]c1-c1ccccc1)C(=O)c1cnnn1-c1ccccc1 | 0.54

Of the compounds above, these have bromine.
SMILES | Bm FixLJ act
O=C(C1CCN(S(=O)(=O)c2ccc(Br)s2)CC1)N1CCN(c2cccc(Cl)c2)CC1 | 0.75
CC(=O)N1CCc2cc(Br)cc(S(=O)(=O)N3CCC(C(=O)Nc4cccc(C)c4C)CC3)c21 | -1.1
CCC(=O)N1CCc2cc(Br)cc(S(=O)(=O)CCC(=O)NCCc3ccccc3Cl)c21 | 0.72

Other structures.
SMILES | Bm FixLJ act
O=C(Nc1c(C(=O)Nc2cccc(C(F)(F)F)c2)oc2ccccc12)c1cc(=O)c2ccccc2o1 | -1.5
CSc1ncc(Cl)c(C(=O)Nc2c(C(=O)c3ccc(C)c(F)c3)oc3ccccc23)n1 | -1.6
Cc1ccccc1-n1cc(CNC(=O)Cn2cc3ccccc3n2)cn1 | 0.01
Cn1c(=O)c2sccc2n2c(CCC(=O)N3CCN(c4ccccc4)CC3)nnc12 | 0.44
CCc1ccc(-n2nc(CO)c(C(=O)NCc3cccs3)n2)cc1 | -0.4
CC1CCc2cc(F)cc3c(=O)c(C(=O)O)cn1c23 (stereo not drawn) | -1.8
CCc1ncc(S(=O)(=O)NC2C3CCC2CN(Cc2ccccc2Cl)C3)[nH]1 (stereo not drawn) | 0.62
CCN(Cc1ccccc1)C(=O)Cn1c(=O)oc2cc(S(=O)(=O)N3CCCCCC3)ccc21 | 0.43
CCCCOc1c(Cl)cc(C(=O)N(Cc2ccc(C)o2)C2CCS(=O)(=O)C2)cc1Cl (stereo not drawn) | 0.7
COc1ccc(Cn2c(SCc3ccc(C(=O)NCc4ccccc4F)cc3)nc3cccnc32)cc1 | 0.63
Cc1nn2c(-c3ccccc3)cc(-c3ccccc3)nc2c1-c1ccc(Cl)cc1 | -0.26
COc1ccc(Cn2cc(C(=O)c3ccc(OC)cc3)c(=O)c3cc4c(cc32)OCCO4)cc1 | -1.1
Cc1cnc(C(=O)NC2C3CCC2CN(C(=O)c2ccc4nccnc4c2)C3)cn1 (stereo not drawn) | -1.7
Cc1ccc(-c2nc3ncccn3c2Nc2ccc3c(c2)OCCO3)cc1 | -0.64
O=C(NCc1csc(-c2cnccn2)n1)c1ccn(C(F)F)n1 | 0.4
CCOCCCNC(=O)C(c1ccc(OC)cc1)N(Cc1ccc2c(c1)OCO2)C(=O)c1ccccc1O (stereo not drawn) | -1.3
O=C1CC(c2ccccc2)Sc2ccccc2N1Cc1ccc(F)cc1 (stereo not drawn) | 1.3
CCN1CCN(CCCNC(=O)c2cc3c(=O)n(C)c4ccccc4c3s2)CC1 | -1.3
Cc1cc(C)nc(CN(C)C(=O)c2ccc3c(c2)ncn3C)c1 | -0.9
CCc1ccccc1NC(=O)Cn1c(=O)n(CC2CCC(C(=O)NCCc3ccccc3)CC2)c(=O)c2ccccc21 (stereo not drawn) | -0.84
Cc1cccc(C(=O)N2CCCC3(CCC(=O)N(CC4CC4)C3)C2)c1O (stereo not drawn) | -0.27
COc1ccc(-n2c(=O)[nH]c3cc(C(=O)NCCc4ccc(Cl)cc4)ccc3c2=O)cc1OC | 0.22
Cc1ccc(S(=O)(=O)N(CC(=O)Nc2ccc(F)cc2F)Cc2ccc(F)cc2)cc1 | 0.75
CO[C@@]12CCC(Oc3ccccn3)CC1N(C(=O)CCC(=O)N(C)C)CC2 (stereo partly drawn) | -1.7
O=c1oc2c3c(ccc2c2ccccc12)OCN(Cc1ccc(Cl)cc1)C3 | 1.4

Remaining list, next part
SMILES | Bm FixLJ act
CCCCOc1ccccc1NC(=O)CC1Sc2ccccc2NC1=O (stereo not drawn) | -0.62
COc1ccc(CCNC(=O)Cn2nc(C)n3c(cc4occc43)c2=O)cc1OC | -1.7
Cn1nnnc1SCCNCc1cc(Br)ccc1OCc1ccccc1Cl | 3
Cn1nc(C(=O)N2CCNC(=O)C2c2cccc(F)c2)nc1Cl (stereo not drawn) | -2.5
CCCCCOC(=O)CSc1nc2sc3c(c2c(=O)n1-c1ccccc1)CC(C)(CC)OC3 (stereo not drawn) | -0.4
Cc1c(CC(=O)NCc2ccccc2Cl)c(=O)oc2cc(O)ccc12 | -1.8
COc1ccc(CCn2c(=O)c3cccnc3n(CC(=O)Nc3c(C)cc(C)cc3C)c2=O)cc1OC | -0.96
CCC(=O)O[C@H]1CCC2C3CCc4cc(O)ccc4C3CC[C@@]21C (stereo partly drawn) | -0.31
COc1ccc(-c2noc(CSc3nnc(-c4ccncc4)n3-c3ccc(C)cc3)n2)cc1OC | -1.6
COc1cc2c(=O)n(CCC(=O)NCC3CCCO3)c(=O)n(CC(=O)Nc3ccccc3C)c2cc1OC (stereo not drawn) | 2.4
O=C(CN1C(=O)COc2ccc(S(=O)(=O)N3CCOCC3)cc21)N1CCN(c2cccc(Cl)c2)CC1 | -0.53
CCOc1ccc(CNCCSc2nnnn2C)cc1OC | -1.9
CC(C)S(=O)(=O)NCc1cc2n(n1)CCN(C(=O)C1CCC1)C2 | -1.8
Cc1cc(NC(=O)COc2cccc(C)c2C)ccc1NC(=O)CN(C)C | 1.1
CCCCN1C[C@H](O)[C@@H](O)[C@H](O)[C@H]1CO | -1.7
CCCN(CCC)CCCNC(=O)c1cn(CC)c2ccc(S(=O)(=O)N3CCc4ccccc4C3)cc2c1=O | -1.2
CC(=O)NCCCC(=O)N1CC2CCC1CN(Cc1ccc(F)cc1)C2 (stereo not drawn) | -0.45
Cc1cnc(C)c(N2CCN(Cc3cccc(Cn4cccn4)c3)CC2)n1 | 0.27
CCOc1cccc(NC(=O)C2CC(=O)N(C)C(=Nc3cccc(OC)c3)S2)c1 (stereo not drawn) | -1.5
Cc1ccccc1C1(O)CCN(C(=O)CCNC(=O)c2ccccc2F)C1 (stereo not drawn) | -0.11
COC(=O)c1ccc(NC(=O)NC(C)c2c(-n3cccc3)sc(C)c2C)cc1 (stereo not drawn) | 1.2
CCc1ccc2oc(-c3cccc(NC(=O)COc4ccccc4Cl)c3)nc2c1 | -5
CCOC(=O)c1c(C)oc2ncnc(Nc3ccc(CC)cc3)c12 | -2.2
COc1ccc(-c2c3c(nc4sc(C(=O)Nc5ccccc5F)c(N)c24)CC(C)(C)CC3=O)cc1 | 0.96
Nc1ccc(C(=O)O)cc1 | -0.12

The closing six entries of the section above open the next one:
SMILES | Bm FixLJ act
Cc1ccccc1C1(O)CCN(C(=O)CCNC(=O)c2ccccc2F)C1 (stereo not drawn) | -0.11
COC(=O)c1ccc(NC(=O)NC(C)c2c(-n3cccc3)sc(C)c2C)cc1 (stereo not drawn) | 1.2
CCc1ccc2oc(-c3cccc(NC(=O)COc4ccccc4Cl)c3)nc2c1 | -5
CCOC(=O)c1c(C)oc2ncnc(Nc3ccc(CC)cc3)c12 | -2.2
COc1ccc(-c2c3c(nc4sc(C(=O)Nc5ccccc5F)c(N)c24)CC(C)(C)CC3=O)cc1 | 0.96
Nc1ccc(C(=O)O)cc1 | -0.12
CC1CCN(C(=O)c2ccc3c(c2)N(Cc2ccccc2)C(=O)c2ccccc2S3(=O)=O)CC1 | 0.77
CCOc1ccccc1NC(=O)c1c(NC(=O)C(C)Oc2cccc(Cl)c2)sc2c1CCCCC2 (stereo not drawn) | -0.77
CCOCCCNC(=O)CN1C(=O)COc2ccc(S(=O)(=O)N3CCCCCC3)cc21 | -0.8
Cc1ccc(-n2c(=O)c3sccc3n(Cc3cc(=O)n4ccccc4n3)c2=O)cc1 | -1.2
CN(Cc1cc(C(C)(C)C)n[nH]1)Cc1nc(-c2ccncc2)no1 | -1.5
CCN(C)CC(C)c1nc(Cc2cccc(Cl)c2)nn1CCO (stereo not drawn) | 0.37
Cc1c(NC(=O)c2nc3ccccc3n(C)c2=O)cccc1[N+](=O)[O-] | 0.35
CCCOC(=O)c1ccc(NC(=O)Cn2nnc3sc4c(c3c2=O)CCC(C(C)(C)C)C4)cc1 (stereo not drawn) | -0.63
CCc1cccc2c(-c3ccc(F)cc3)nc(SCC(=O)Nc3ccccc3)nc12 | -2.6
OCCNc1nc(C2CCOC2)cc(N2CCC3(CCCC3)C2)n1 (stereo not drawn) | 0.15
Cc1ccc2c(c1)c1c(c(=O)n(-c3cccc(Cl)c3)c(=O)n1CC(=O)Nc1c(C)cccc1C)n2C | 0.24
Cc1c(Cl)cccc1NC(=O)Nc1ccc2snnc2c1 | -7
Cc1cccc(C(=O)N2CCCC(c3nccn3Cc3ccccc3)C2)n1 (stereo not drawn) | -0.13
Cc1ccc(CNC(=O)CCc2c(C)nc3c4c(C)cc(C)nc4nn3c2C)cc1 | -1.4
CCc1ccc(NC(=O)C(Cc2ccccc2)NS(=O)(=O)c2ccc3c(c2)c(=O)n(C)c(=O)n3C)cc1 (stereo not drawn) | -2.5
Cc1ccc(C)c(NC(=O)C2CCN(c3cc(C)nc4c(-c5ccc(Cl)cc5)c(C)nn34)CC2)c1 | -2.1
CC(=O)c1c(C)oc2ccc(N(C(=O)c3ccncc3)S(=O)(=O)c3ccc(F)cc3C)cc12 | -1.7
Cc1ccc(NC(=O)Cn2c(=O)n(Cc3ccco3)c(=O)c3ccc(C(=O)NC4CCCC4)cc32)c(C)c1 | -0.99
CC(c1nc(C2CCOCC2)nn1CCc1ccccc1)n1ccnc1 (stereo not drawn) | -0.45
COc1cccc(N2C(=O)C(CC(=O)Nc3ccc(F)cc3)N(CCC3=CCCCC3)C2=O)c1 (stereo not drawn) | 1.8
O=c1oc2cc(O)ccc2cc1-c1nnc(Nc2ccccc2F)s1 | 23*
CCC1=C(c2ccc(C)cc2)S(=O)(=O)N=C1N1CCC(C(=O)NCc2ccc(C)cc2)CC1 | -3.3
COc1ccc(-c2nn(C)c3sc(C(=O)N4CCN(c5ccccc5F)CC4)cc23)cc1OC | -1.2
COc1cccc(CSc2nc3ccncc3n2CC(=O)Nc2ccc(OC)c(OC)c2OC)c1 | 0.4
Cn1nc2cccc(S(=O)(=O)NCC(c3ccccc3)N3CCCCCC3)c2n1 (stereo not drawn) | 0.04

Other compounds follow.
SMILES | Bm FixLJ act
COc1ccc(-c2noc(CSc3nnc(C)n3-c3ccc(C)c(C)c3)n2)c(OC)c1 | -3.5
Cc1ccc(CN(Cc2ccco2)C(=O)c2ccccc2Br)o1 | -1.4
COc1ccc(C(=O)Nc2nc3c(s2)CCc2cc(OC)ccc2-3)cc1 | 1.9
O=C1CC(c2ccc(F)cc2F)c2cc3c(cc2N1)OCO3 (stereo not drawn) | -1.1
COc1cc(-c2cc3n(C)c(C)c(CCC(=O)O)c(=O)n3n2)cc(OC)c1OC | -2.3
Cc1nnc(CN2CCCN(C(=O)COc3ccc(F)cc3)CC2)o1 | 0.58
Cc1ccc2nc(-c3ccc(C)c(NC(=O)Cc4ccccc4)c3)oc2c1 | 0.01
CCOC(=O)c1ccc(N2C(=O)c3[nH]nc(-c4ccc(C)cc4)c3C2c2ccc(O)cc2)cc1 (stereo not drawn) | 1.1

4 entries from above, arranged by SMILES length, descending.
SMILES | Bm FixLJ act
CCOC(=O)c1ccc(N2C(=O)c3[nH]nc(-c4ccc(C)cc4)c3C2c2ccc(O)cc2)cc1 (stereo not drawn) | 1.1
COc1ccc(-c2noc(CSc3nnc(C)n3-c3ccc(C)c(C)c3)n2)c(OC)c1 | -3.5
COc1cc(-c2cc3n(C)c(C)c(CCC(=O)O)c(=O)n3n2)cc(OC)c1OC | -2.3
Cc1nnc(CN2CCCN(C(=O)COc3ccc(F)cc3)CC2)o1 | 0.58

Screens (PubChem)

Some of the compounds tested; the hit share may differ from the screen's.
